PABP polyA inh = PABP-poly(A) binding inhibition. P11940. PABP-poly(A) RNA binding, fluorescence polarization. inhibition, % at 35 µM. 290,000 tested, 1% active;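 active = 50% or more with normal probe brightness, or confirmed in later tests; inconclusive = above 50% with abnormal brightness, or retests that disagree; inactive = below 50% or failed in later tests; about a fifth of its hits are not listed in these tables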;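 note: calls also rest on retests at 20 µM and on dose response follow-up; controls were probe without protein and protein plus probe with vehicle; some compounds called inactive have numbers as strong as hits; many hits fall short of the cut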
Target sequence (P11940 whole entry, looked up): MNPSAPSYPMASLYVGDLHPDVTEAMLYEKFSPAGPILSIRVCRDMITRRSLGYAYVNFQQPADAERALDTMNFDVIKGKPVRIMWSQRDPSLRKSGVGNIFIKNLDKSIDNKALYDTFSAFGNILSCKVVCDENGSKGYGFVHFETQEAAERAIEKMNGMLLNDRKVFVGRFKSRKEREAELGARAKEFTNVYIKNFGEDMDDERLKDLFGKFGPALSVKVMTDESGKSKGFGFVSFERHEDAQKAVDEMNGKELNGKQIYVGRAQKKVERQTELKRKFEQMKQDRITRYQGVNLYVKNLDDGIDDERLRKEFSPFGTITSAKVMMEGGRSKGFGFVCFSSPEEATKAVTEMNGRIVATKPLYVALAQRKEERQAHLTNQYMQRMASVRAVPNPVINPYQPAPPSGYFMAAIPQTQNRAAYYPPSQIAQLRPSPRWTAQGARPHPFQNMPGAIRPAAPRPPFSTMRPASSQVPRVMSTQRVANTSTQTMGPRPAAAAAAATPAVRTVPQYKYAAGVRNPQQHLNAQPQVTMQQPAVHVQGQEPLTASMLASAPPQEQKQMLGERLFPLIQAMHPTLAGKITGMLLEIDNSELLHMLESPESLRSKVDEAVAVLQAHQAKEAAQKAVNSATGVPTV
MT1-MMP act inh = MT1-MMP (human) activation inhibition. HT1080 RFP-PRO-GFP cells, GFP/RFP ratio fluorescence, overnight; percent of plate control window, DMSO zero. AID 651647. P50281. 360,000 tested, 0.061% active. GFP/RFP ratio change, % at 20 µM;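 active = GFP/RFP ratio change of at least 30% with cell ATP level not reduced by more than half and red fluorescence within 50% of control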; note: strong numbers were not always called active
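system = RFP-PRO-GFP reporter HT1080 cells | dosing = 20 µM single dose, 1% DMSO | timing = overnight cell settling, then overnight compound exposure, 37 °C, 5% CO2 | read-out basis = GFP/RFP fluorescence ratio | controls = DMSO and RFP-L50D-GFP cell wells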
eIF4H inh = inhibitors of RNA binding by human eIF4H | 290,000 tested, 0.94% active | inhibition, % at 35 µM | eIF4H fluorescence polarization binding assay;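 active = 50% or more with normal probe brightness, or confirmed in later tests; inconclusive = above 50% with abnormal brightness, or retests that disagree; inactive = below 50% or failed in later tests; about a fifth of its hits are not listed in these tables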;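 note: calls also rest on retests at 20 µM and on dose response follow-up; 0% = protein and probe with vehicle and 100% = probe without protein; strong numbers were not always called active; many hits fall short of the cut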
Yeast UUG start = modulators of start codon recognition fidelity in yeast; S. cerevisiae UUG-firefly luciferase reporter, luminescence/redox ratio; activity score, % at 18.7 µM; 350,000 tested, 0.13% active;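 active = replicate mean at a twofold rise or more, about +100% in these data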;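 note: firefly luciferase made from a UUG start codon reports start codon fidelity; reporter light over untreated wells divided by growth signal over untreated wells; some hits fall short of that in this replicate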
Rce1 inh = yeast Ras-converting enzyme inhibition; Q03530; AID 2563; 290,000 tested, 0.27% active; calls only; yeast membranes, quenched prenylated peptide cleavage fluorescence;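 active = fall in fluorescence gain of 50% or more versus controls, with final raw signal at or below 3038400; inconclusive = same 50% fall but final raw signal above 3038400; inactive = fall in fluorescence gain under 50%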;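 note: plate controls were neutral control wells for no effect and wells lacking membranes for full effect; tested at 10 µM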
CSC inhib = cancer stem cell inhibition; cancer stem cell-like cells viability, luminescence; inhibition, % at 7.5 µM; 300,000 tested, 1.1% active; AID 2717;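 active = mean at 75% or more and at least half the replicates too; inconclusive = mean and replicates disagree; tested in HMLE shEcad cells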;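 note: 0% = median of negative and 100% = median of positive control wells; the first replicate is given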
Env fusion inh = inhibitors of HIV Env-mediated cell fusion. AID 651610. inhibition, % at 12.3 µM. HeLa-JRFL Env/CEM21 cell fusion, luciferase. 360,000 tested, 1.1% active;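 active = mean replicate inhibition score of at least 50 and every replicate individually at or above 50; inconclusive = only one of the two criteria met; inactive = mean below 50 and not all replicates reaching 50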;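 note: 0% = plate neutral controls and 100% = maraviroc near 300 nM; one replicate is shown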
eIF4H inh retest = further read-out of eIF4H inh, marked with its call; inhibition, %; compound at 20 µM; confirmation average;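 mean of two retest wells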
PABP polyA inh retest = also measured in PABP polyA inh; calls as there; inhibition, %; compound at 20 µM; confirmation repeats;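 mean of two retest wells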
MT1-MMP act inh RFP = recorded beside MT1-MMP act inh, whose call it bears; RFP signal change, %; measured here: RFP expression control read;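 0 = vehicle wells; hits needed this value within 50% of zero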
Numbers without * were called inactive; i = inactive; ? = inconclusive; . = no result given.

SMILES	PABP polyA inh	MT1-MMP act inh	MT1-MMP act inh RFP	eIF4H inh	Yeast UUG start	Rce1 inh	CSC inhib	Env fusion inh	others
CCOC(=O)CC1COCCN1C(=O)c1cc(COc2ccc(F)cc2Cl)on1 (configuration not stated)	3	1	1	3	-1	i	6	.
COC(=O)CCC(=O)N1CCCC(CO)(Cc2ccccc2F)C1 (configuration not stated)	8	17	-5	-11	7	i	2	7
CCN(CC)C(=O)CSc1nc2sc(C)c(C)c2c(=O)[nH]1	2	5	0	-1	-6	i	-33	.
CCc1ccc2[nH]c3nc(SCC(=O)NCC4CCCO4)nnc3c2c1 (configuration not stated)	4	7	-10	-5	-11	i	.	17
CC(=O)Nc1ccc2c(c1)ncn2-c1ccc(C)cc1	-6	2	3	-15	.	i	-10	-9
CCCCNC(=O)COC(=O)c1ccc(Cl)c(S(N)(=O)=O)c1	6	-4	-4	9	-11	.	-6	.
COc1ccc(N2CCN(C(=S)Nc3ccc(F)cc3)CC2)cc1	16	.	.	-1	12	i	0	7
Nc1nn(-c2cccc(F)n2)cc1-c1ccccc1	-3	-2	-3	-1	-25	i	.	-186
CCc1n[nH]c(=S)n1/N=C/c1c(C)nn(-c2ccccc2)c1Cl	8	4	4	4	-22	i	.	31
Cc1[nH]c(=O)[nH]c(=O)c1S(=O)(=O)NCCOC12CC3CC(CC(C3)C1)C2	-9	6	2	-4	-9	i	10	-36
O=C(/C=C/c1ccc(Br)o1)NC(c1ccccc1)c1ccccc1	14	-3	-1	-12	-13	i	11	11
O=C(COC(=O)c1cn(-c2ccccc2)nc1-c1ccccc1)Nc1ncc(Cl)cc1Cl	29	-12	-2	37	-3	i	-17	9
O=c1c2cc(Cl)cc(Cl)c2nc2n1CCC2	-3	-2	5	-8	.	i	-9	6
Cc1cc(C)cc(OCC(=O)Nc2ccc3c4c(cccc24)CC3)c1	3	4	4	-13	1	i	-3	-83
Clc1cccc(Cl)c1Cn1ccc(C2CC2)n1	-13	0	1	-2	.	i	-26	-16
COc1ccc(CCN2CC(C(=O)Nc3cc(F)ccc3F)CC2=O)cc1OC (configuration not stated)	.	1	2	.	-13	i	-6	5
O=C(Nc1cccc(Cl)c1)c1ccc(S(=O)(=O)NCC2CCCO2)cc1 (configuration not stated)	1	-1	-15	-3	5	i	.	24
COc1ccc(Cn2c(O)c(C=Nc3ccc(O)cc3)c3ccccc3c2=O)cc1	-10	-6	-1	?	-17	i	67	-14
O=C(NCCn1c(-c2ccncc2)nc2ccccc21)[C@H]1CCCN1c1nc(CN2CCCCC2)cs1	-11	.	.	4	-4	i	-6	16
Cc1csc(SCC(=O)Nc2ccccc2[N+](=O)[O-])n1	-3	1	0	3	.	i	-11	-5
CCOC(=O)C1CCCN(C(=O)/C=C/c2ccc(Cl)cc2)C1 (configuration not stated)	-12	-2	0	-3	.	i	-26	6
Cc1cccc(C)c1NC(=O)CCCN1C(=O)C(c2ccccc2)Oc2cccnc21 (configuration not stated)	-10	0	-4	-11	-5	i	9	6
CN(C)c1ncc(S(=O)(=O)c2ccccc2)c(-c2ccc(Cl)cc2Cl)n1	-8	-3	-2	-6	-15	i	1	-37
COc1ccc(CC(=O)NC(CC(=O)O)c2ccc(OC)cc2)cc1 (configuration not stated)	-4	-6	1	3	-16	i	11	-61
Cc1ccc(OCC(=O)Nc2ccc3c(c2)nc2n3CCOC2)cc1	-11	1	0	3	-7	i	-2	-47
Cc1ccc(NC(=O)CSc2nc(C)c(Cc3ccccc3)c(=O)[nH]2)cc1C	1	1	1	-1	.	i	7	-135
O=C(O)CCC(=O)/C=C/c1ccccc1	-1	5	2	-1	.	i	-5	8
O=C(Nc1ccccc1)C1COc2ccccc2O1 (configuration not stated)	-1	0	-2	-2	-9	i	-18	3
COc1ccc(OC)c(N(C)S(=O)(=O)c2ccc3c(c2)N(C(C)=O)CCO3)c1	7	2	2	16	-8	i	-28	-4
Cn1c(=O)n(C)c2cc(N3CCCC3)c(NC(=O)c3cccc(F)c3)cc21	-5	9	8	-8	14	i	-9	-2
CCCS(=O)(=O)N1CCCC(C(=O)NCCN2CCOCC2)C1 (configuration not stated)	1	-1	1	0	-3	i	-9	.
CCn1cc(C(=O)NCCCN2CCCC(C)C2)c(=O)c2cc(S(=O)(=O)N(C)C3CCCCC3)ccc21 (configuration not stated)	-11	-4	-3	-11	-16	i	1	2
COC(=O)C1Cc2c([nH]c3ccccc23)CN1C(C)=O (configuration not stated)	8	-3	0	-2	-14	i	9	0
COc1ccc(Nc2ncnc3sc(C)cc23)c(OC)c1	6	0	0	-1	5	i	0	-38
Oc1c(CNc2ccccc2)cc(COCc2ccccc2)c2cccnc12	.	3	-6	.	-48	.	.	-4
CCOc1ccc(/C=N/NC(=O)c2cc3ccccc3cc2OC)cc1	3	2	-3	-4	15	i	32	-7
O=C(CSc1nnc2scc(-c3ccccc3)n12)c1ccc2c(c1)OCCO2	3	3	0	51	10	i	.	27	eIF4H inh retest=8;PABP polyA inh retest=-1
Cc1cc(NC(=O)CSc2nnc(COc3cccc(C)c3C)n2Cc2ccco2)no1	6	6	3	2	.	i	-6	.
CCOc1ccc(CC(=N)C2=C(O)CC(C)(C)CC2=O)cc1OCC	0	5	6	-4	-4	i	-2	-17
Cc1nonc1OCCN1CCN(c2ccccc2[N+](=O)[O-])CC1	6	2	-2	-7	.	i	-3	13
CC(C)(C)c1cc(CSC(=S)NC2CCS(=O)(=O)C2)c(Br)c(C(C)(C)C)c1 (configuration not stated)	-10	-4	-7	24	-5	i	97*	13
Oc1c(C=C2N=c3ccccc3=N2)sc(=S)n1-c1ccc2ccccc2c1	10	0	0	2	-18	i	.	10
Cn1nnnc1Sc1ncnc2scc(-c3cccc(Br)c3)c12	.	-20	-22	.	-18	.	89*	-106
CC(C)CNC(=O)C1(C)CCN1C(=O)c1ccc(C(C)(C)C)cc1 (configuration not stated)	.	-4	-20	.	-23	.	.	12
O=C(Cn1nnc(-c2ccc(F)cc2)n1)NC(=O)NC1CCCCC1	.	8	4	.	-12	.	.	14
O=C(NCCC1=CCCCC1)Nc1ccc2nsnc2c1	-10	0	-2	-1	.	i	-3	-33
CC1(C(=O)NCC2CCCO2)Oc2cccnc2NC1=O (configuration not stated)	3	-1	-1	-5	-18	i	1	13
Cc1cc(=O)oc2cc(OC(=O)C3CCN(C(=O)c4ccc(F)cc4)CC3)ccc12	.	2	5	.	23	i	-3	.
COC(=O)c1c(NC(=O)CCCC(=O)O)sc2c1CCC2	14	0	0	16	-5	i	-12	.
CC1(C)Cc2c(sc(NC(=O)C(=O)NCC3CCCO3)c2C(N)=O)CO1 (configuration not stated)	-5	-1	2	-6	.	i	2	-7
CCCNC(=O)Cn1c(-c2ccc(F)cc2)cc(C(=O)OCC)c1C	-9	0	3	3	.	.	-10	14
CCC(=O)Nc1cc(-c2cc3ccccc3oc2=O)ccc1OC	-5	3	2	-14	.	i	3	-54
O=C(COC(=O)Cc1ccccc1F)Nc1cccc(F)c1	57	2	2	0	.	i	-4	3	eIF4H inh retest=-1;PABP polyA inh retest=3
O=S(=O)(NCCCN1CCN(c2ccccc2F)CC1)c1cccc2cccnc12	-5	1	0	-6	-14	i	-3	.
Cc1ccc(C)c(N(CC(=O)NC2CCCC2)C(=O)c2cc3cc4cc(C)ccc4nc3s2)c1	3	-8	-14	-2	-15	i	-10	.
O=C(Nc1ccc(-c2csc(Nc3ccccc3)n2)cc1)c1cc([N+](=O)[O-])cc(C(F)(F)F)c1	6	-3	-19	-12	-8	i	0	6
COc1ccc2nc(Nc3nc(CSc4ccc(C)cc4)cc(=O)[nH]3)nc(C)c2c1	-14	5	-5	-6	1	i	.	-1
CCN(CC)CCN1C(=O)C2C(C(=O)Nc3cccc(C)c3)C3C=CC2(O3)C1C(=O)NC1CCCC(C)C1C (configuration not stated)	4	0	3	4	-12	i	-10	-2
S=c1[nH]nc(C23CC4CC(CC(C4)C2)C3)n1Cc1ccco1	-5	-4	-3	1	-3	i	-19	.
CCC(C(=O)NC(C)CCc1ccco1)n1nc(C)n2c(cc3occc32)c1=O (configuration not stated)	2	-4	-7	0	-13	i	-7	.

Among those listed so far, these have an aryl methoxy group.
SMILES	PABP polyA inh	MT1-MMP act inh	MT1-MMP act inh RFP	eIF4H inh	Yeast UUG start	Rce1 inh	CSC inhib	Env fusion inh	others
COc1ccc(N2CCN(C(=S)Nc3ccc(F)cc3)CC2)cc1	16	.	.	-1	12	i	0	7
COc1ccc(CCN2CC(C(=O)Nc3cc(F)ccc3F)CC2=O)cc1OC (configuration not stated)	.	1	2	.	-13	i	-6	5
COc1ccc(Cn2c(O)c(C=Nc3ccc(O)cc3)c3ccccc3c2=O)cc1	-10	-6	-1	?	-17	i	67	-14
COc1ccc(CC(=O)NC(CC(=O)O)c2ccc(OC)cc2)cc1 (configuration not stated)	-4	-6	1	3	-16	i	11	-61
COc1ccc(OC)c(N(C)S(=O)(=O)c2ccc3c(c2)N(C(C)=O)CCO3)c1	7	2	2	16	-8	i	-28	-4
COc1ccc(Nc2ncnc3sc(C)cc23)c(OC)c1	6	0	0	-1	5	i	0	-38
CCOc1ccc(/C=N/NC(=O)c2cc3ccccc3cc2OC)cc1	3	2	-3	-4	15	i	32	-7
CCC(=O)Nc1cc(-c2cc3ccccc3oc2=O)ccc1OC	-5	3	2	-14	.	i	3	-54
COc1ccc2nc(Nc3nc(CSc4ccc(C)cc4)cc(=O)[nH]3)nc(C)c2c1	-14	5	-5	-6	1	i	.	-1

Next results:
SMILES	PABP polyA inh	MT1-MMP act inh	MT1-MMP act inh RFP	eIF4H inh	Yeast UUG start	Rce1 inh	CSC inhib	Env fusion inh	others
COc1c(Cl)cc(Cl)cc1CNCCNCCO	8	-1	6	0	-9	i	5	-21
COc1cccc(N2C(=O)CC(N3CCN(S(=O)(=O)c4ccccc4)CC3)C2=O)c1 (configuration not stated)	-2	1	1	-2	.	i	-11	.
Cc1cccc(C(=O)NC(=S)Nc2ccc(S(=O)(=O)N3CCN(C)CC3)cc2)c1	-4	7	5	12	-12	i	-3	.
O=c1oc2ccccc2cc1-c1csc(Nc2nc3ccc(F)cc3s2)n1	2	.	.	14	.	i	24	.
O=[N+]([O-])c1ccc(NCc2ccncc2)cc1	-2	3	-1	-10	-9	i	-16	0
